Bioassay records: PubChem BioAssay, Center for Chemical Genomics, University of Michigan
CDC25B CDK2 inh – human CDC25B-CDK2/CyclinA binding inhibition | HTRF CDC25B-CDK2/CyclinA binding, anti-His/anti-Flag; hits give high values | 94,000 tested, 0.72% active | AID 1259370 | z-score (test concentration not listed);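 also: score is relative to mean and SD of negative controls; strong numbers were not always called active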
TAR Tat displ – HIV-1 TAR-Tat binding disruption | 100,000 tested, 0.6% active | HIV-1 TAR RNA, Tat peptide displacement FRET; hits give high values | z-score (no concentration beside the values) | AID 1259389;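 also: score is relative to mean and SD of negative controls; some compounds called inactive have numbers as strong as hits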
Active calls of the source: *; · = no result given.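 The calls were made as follows: active = z-score from 3 up in half or more of its runs; inactive = the rest.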

SMILES | CDC25B CDK2 inh | TAR Tat displ
CCCCOc1cccc(C2Nc3ccccc3NC3=C2C(=O)CC(C)(C)C3)c1 (stereo unspecified) | -1.3 | 0.7
Cc1c(C(=O)NCC(c2ccco2)N2CCCC2)oc2ccccc12 (stereo unspecified) | -1.04 | -1.75
CC1=C(c2ccc(C)cc2)S(=O)(=O)N=C1N1CCCCC1C (stereo unspecified) | -0.72 | 0.42
Cc1cccc(C)c1NS(=O)(=O)c1cn(C)cn1 | · | 2.12
COc1ccc(-c2n[nH]c(=S)n2Cc2ccccc2)cc1OC | -1.25 | ·
O=C(CCc1nnc2ccc(NCc3ccc4c(c3)OCO4)nn12)NCc1ccco1 | · | 3.9
CSc1ccc(CCNS(=O)(=O)c2ccc3c(c2)C(C)(C)C(=O)N3C)cc1 | · | 0.3
CCc1c(C)nc2ncnn2c1Nc1cc(Cl)c(C)cc1OC | -0.97 | 1.62
CC1(C)Cc2c(sc(N)c2C(=O)O)CO1 | -0.52 | -1
O=C(NCc1cccnc1)c1ccc2c(Cl)c3c(nc2c1)CCC3 | -0.49 | 0.42
Cc1nc(-c2ccc(S(=O)(=O)Nc3ccccc3)cc2)co1 | · | 0.15
CN(C)c1ccc(C2C(C#N)=C(N)Oc3c2sc2ccccc32)cc1 (stereo unspecified) | -4.15 | -6.49
O=S(=O)(c1ccccc1)N1CCN(c2ccc3nncn3n2)CC1 | -2.09 | 0.92
COc1ccc(-n2ncc3c(Nc4ccc(Br)cc4)ncnc32)cc1 | 0.69 | ·
O=C(CN1CCSc2ccccc21)NCCc1cccs1 | · | 0.03
Cc1ccc(-c2ccc(=O)[nH]n2)cc1S(=O)(=O)Nc1ccc(F)cc1F | 0.15 | 0.46
O=c1ccccn1Cc1ccccc1F | 3.15 | -0.92
CCOC(=O)c1ccc2c(c1)[C@@H]1C=CC[C@@H]1[C@H](c1ccc(C(=O)OC)cc1)N2 | 0.35 | 0.76
Cc1oc(=O)c(NC(=O)c2ccccc2)cc1C(=O)c1ccccc1 | -0.68 | ·
Cn1c(=O)[nH]c(=O)c2c1nc(N1CCOCC1)n2CCSc1nnnn1-c1ccccc1 | -1.51 | ·
CCc1cc2c(=O)c(-c3nc4ccccc4s3)c(C)oc2cc1OC(C)=O | -0.82 | 0.83
CCCOC(=O)CSc1nc(C)cc(C)c1C#N | 0.56 | 2.78
CCN1CCCC1CNS(=O)(=O)c1cc(-c2cc(C)no2)ccc1C (stereo unspecified) | · | 0.81
CCNC(=O)C1CCN(c2nc3ncc([N+](=O)[O-])cc3o2)CC1 | 1.28 | 0.29
CCC(C)(C)NC(=O)Cn1cnc(S(=O)(=O)N2CCC(C)CC2)c1 | · | 0.19
Cc1cc(C)c2c(=O)n(CC(=O)NCCC3=CCCCC3)sc2n1 | -1.33 | 0.07
O=C(Nc1cccnc1N1CCOCC1)c1ccco1 | -2.23 | ·
Cc1cccc(Oc2ncnc3c2oc2ccccc23)c1 | · | -1.47
CN(C)S(=O)(=O)c1ccc(C(=O)Nc2c3c(nn2-c2ccc(Cl)cc2)CS(=O)(=O)C3)cc1 | · | 2.06
CCOC(=O)c1c(C)oc2ncnc(N(C)c3cc(Cl)c(OC)cc3OC)c12 | · | 1.26
Cc1c(C(=O)Nc2nc3c(s2)CC(C)CC3)oc2ccccc12 (stereo unspecified) | -1.62 | -0.07
CN1CN=C2SC(CO)(CO)C(=O)N2C1 | -0.93 | 0.54
CCN(CC)S(=O)(=O)c1ccc2c(c1)N(CC(=O)NCCN1CCCCC1C)C(=O)CS2 (stereo unspecified) | 1.03 | 1.68
CCCCNC(=O)C1CCCN(S(=O)(=O)c2c(C)noc2/C=C/c2cccs2)C1 (stereo unspecified) | -0.58 | 2.42
Cc1nc2sccn2c(=O)c1S(=O)(=O)NCC(C)c1ccccc1 (stereo unspecified) | -1.06 | -1.26
COCCOC(=O)C1=C(C)NC2=C(C(=O)CC(c3ccccc3)C2)C1c1cc2c(cc1Cl)OCO2 (stereo unspecified) | 0.66 | -1.67
CCN(CC)S(=O)(=O)c1cc(-c2n[nH]c(=O)c3ccccc23)ccc1C | -0.9 | -0.3
Cc1csc(NC(=O)CCc2nnc3ccc(NCc4ccc5c(c4)OCO5)nn23)n1 | · | 0.64
COc1cccc(N2C(=O)c3c(c4ccccc4n3C)C2c2ccccc2OC)c1 (stereo unspecified) | -1.97 | ·
COc1ccc(CN2COc3ccc4c(oc(=O)c5ccccc54)c3C2)cc1OC | -0.05 | -0.59
Cc1ccc(C)c(CN2N=NC3C(=O)N(c4ccc(F)cc4)C(=O)C32)c1 (stereo unspecified) | 1.48 | 0.81
O=C1CCCC2=C1C(c1ccc(Cl)cc1)c1c([nH]n(-c3ccccc3)c1=O)N2 (stereo unspecified) | -6.78 | 0.22
O=C(O)c1cc(-c2ccc(Br)cc2)nc2n[nH]c(-c3ccc(F)cc3)c12 | · | 0.03
Cc1cc(C)n2c(SCC(=O)O)nnc2n1 | -0.43 | -0.98
O=C(NCc1ccc(Cl)cc1Cl)c1cccnc1OCC(F)(F)F | -0.99 | ·
c1ccc(N2CCN(c3nc4ccccc4[nH]3)CC2)nc1 | 1.49 | 1.36
COc1ccc(C[C@H](NC(C)=O)C(=O)O)c(Cl)c1OC | -1.78 | ·
c1ccc(-c2oc3ncn4nc(-c5ccco5)nc4c3c2-c2ccccc2)cc1 | -1.17 | 0.75
CCc1c(O)nc(SCc2ccc(F)cc2)[nH]c1=O | -1.24 | 3.78
CC1(C)Cc2nc3oc4c(NCc5ccco5)ncnc4c3cc2CO1 | · | -1.6
COC1C(O)C(O)C(O)[C@@H](O)C1O (stereo partly specified) | · | 0.42
CC1=C(C(=O)OC(C)C)C(c2ccccc2OC(C)C)C2=C(CC(C)(C)CC2=O)N1 (stereo unspecified) | -0.55 | -0.82
CC(C)(C)c1ccc(-c2nnc3sc(-c4cnccn4)nn23)cc1 | -0.72 | -0.74
CCC(CO)Nc1ncnc2onc(-c3ccc(F)cc3)c12 (stereo unspecified) | · | 1.35
CCCCN1C2=NC(=O)CN2c2ccccc21 | -1.23 | 0.36
Cc1cc2c(cc3c(=O)n(CC(=O)NC4CCCCC4C)ncn32)s1 (stereo unspecified) | -3.12 | 0.12
COC(=O)c1ccc(NS(=O)(=O)c2cn(C)cn2)cc1 | · | 0.68
COC(=O)C(Cc1cc(Br)c(O)c(Br)c1)NC(=O)C(F)(F)F (stereo unspecified) | -1.45 | ·
CCCC(=O)Nc1nc2c(s1)CC(C(C)(C)C)CC2 (stereo unspecified) | 1.04 | 0.11
COC(=O)c1scc2c(OC)cc(C(F)(F)F)nc12 | -1.05 | ·

Record cards, from the list above. Screens in order: CDC25B CDK2 inh, TAR Tat displ
O=C(O)c1cc(-c2ccc(Br)cc2)nc2n[nH]c(-c3ccc(F)cc3)c12 as listed: ·, 0.03
Cc1oc(=O)c(NC(=O)c2ccccc2)cc1C(=O)c1ccccc1 as listed: -0.68, ·
CC1=C(C(=O)OC(C)C)C(c2ccccc2OC(C)C)C2=C(CC(C)(C)CC2=O)N1 (stereo unspecified) as listed: -0.55, -0.82
CCCOC(=O)CSc1nc(C)cc(C)c1C#N as listed: 0.56, 2.78
c1ccc(N2CCN(c3nc4ccccc4[nH]3)CC2)nc1 as listed: 1.49, 1.36

In the list so far, these contain a Cl atom:
SMILES | CDC25B CDK2 inh | TAR Tat displ
CCc1c(C)nc2ncnn2c1Nc1cc(Cl)c(C)cc1OC | -0.97 | 1.62
O=C(NCc1cccnc1)c1ccc2c(Cl)c3c(nc2c1)CCC3 | -0.49 | 0.42
CN(C)S(=O)(=O)c1ccc(C(=O)Nc2c3c(nn2-c2ccc(Cl)cc2)CS(=O)(=O)C3)cc1 | · | 2.06
CCOC(=O)c1c(C)oc2ncnc(N(C)c3cc(Cl)c(OC)cc3OC)c12 | · | 1.26
COCCOC(=O)C1=C(C)NC2=C(C(=O)CC(c3ccccc3)C2)C1c1cc2c(cc1Cl)OCO2 (stereo unspecified) | 0.66 | -1.67
O=C1CCCC2=C1C(c1ccc(Cl)cc1)c1c([nH]n(-c3ccccc3)c1=O)N2 (stereo unspecified) | -6.78 | 0.22
O=C(NCc1ccc(Cl)cc1Cl)c1cccnc1OCC(F)(F)F | -0.99 | ·
COc1ccc(C[C@H](NC(C)=O)C(=O)O)c(Cl)c1OC | -1.78 | ·

Other structures follow:
SMILES | CDC25B CDK2 inh | TAR Tat displ
CC(C)CCNc1nc2ccccc2n2nnnc12 | -1.78 | 0.74
CC1CCC(c2nnc(-c3ccc(Br)cc3)o2)CC1 (stereo unspecified) | -1.05 | 2.12
CC1c2cccn2CCN1C(=O)Nc1ccc(F)cc1F (stereo unspecified) | · | -6.98
O=C(c1ccc(-n2ccc3ccccc32)s1)N1CCN(c2ccc(F)cc2)CC1 | · | -0.25
Cc1c(NS(=O)(=O)c2ccc(F)cc2)c(=O)n(-c2ccccc2)n1C | -0.47 | 1.19
CCOC(=O)c1cnc2nc(-c3cccnc3)[nH]n2c1=O | -0.45 | 0.44
COc1ccc(OCC(O)Cn2c(N3CCCCCC3)nc3c2c(=O)n(C)c(=O)n3C)cc1 (stereo unspecified) | -0.46 | ·
Cc1c(NC(=O)NCc2ccco2)sc2nc3n(c(=O)c12)CCC(C)CC3 (stereo unspecified) | 2.49 | 0.72
CCn1c2ccccc2c2nnc(SCC(=O)c3ccccc3)nc21 | -5.55 | 1.63
O=c1sc(N2CCN(c3ccc(F)cc3)CC2)nc2ccsc12 | 0.34 | -2.45
Cc1ccc(OCC(=O)OCc2cc(=O)n3nc(C(C)C)sc3n2)cc1C | · | 1.03
COc1ccc(N2CCN(c3ncc4c(n3)CCN(Cc3ccc5c(c3)OCCO5)C4)CC2)cc1 | · | -0.34
O=S(=O)(NCCc1cn2ccsc2n1)c1ccc(Oc2ccccc2)cc1 | · | -0.65
CCCCNc1nc2ccccc2c2nc(-c3ccccc3)nn12 | -1.53 | -0.95
CC(C)CCSc1nc(N2CCOCC2)c2c(c1C#N)CC(C)(C)OC2 | -2.15 | 0.55
Cc1ccc2c(c1)-c1cc(C)nn1C(c1cccc(O)c1O)N2 (stereo unspecified) | 1.81 | 18.8*
Cc1ccc2nc(C3=C(O)CN(CCN4CCOCC4)C3=N)[nH]c2c1 | -3.45 | 0.84
Cn1cc2c(n1)c(=O)n(Cc1ccc(F)cc1)c(=O)n2CC(=O)NC1CCCC1 | · | 2.55
CCCN1CCN(S(=O)(=O)c2ccc(-n3cnnn3)cc2)CC1 | 0.21 | 0.12
COC(=O)c1cc(S(=O)(=O)N2CCN(C(=O)c3ccco3)CC2)c[nH]1 | · | 0.63
O=C(NC1CC1)C1CCCN(c2ncnc3onc(-c4ccc(F)cc4)c23)C1 (stereo unspecified) | · | 1.76
C(=N\N=C\c1cccs1)/c1cccs1 | -2.28 | ·
CCCc1cc2c(=O)c(-c3ccc(C(=O)OCC)o3)c(C(=O)OCC)oc2cc1OC | -0.01 | ·
N#Cc1cc2c(nc1SCC(=O)Nc1nc3ccccc3s1)CCCC2 | 0.37 | 0.27
CCOc1ccc(OCC)c(NS(=O)(=O)c2cc(-c3cnc(C)o3)ccc2C)c1 | · | -0.04
O=C(O)CCc1ccccc1OC(=O)c1ccccc1 | -3.61 | ·
Cc1cn2c(=O)c(S(=O)(=O)Nc3ccc(Cl)cc3)c(C)nc2s1 | · | -1
O=C(CCCN1C(=O)c2cccnc2Oc2ccccc21)NCCCN1CCOCC1 | · | 0.6
O=C(O)CCCC(=O)Nc1cccc2cccnc12 | -0.19 | 1.35
O=C(N=Nc1c(O)n(CN2CCCC2)c2ccc(Br)cc12)c1cccnc1 | 2.98 | ·
CCC(C(=O)N1CCN(c2ccccc2F)CC1)n1nc(C)c2sc3ccccc3c2c1=O (stereo unspecified) | -1.58 | 1.34
O=c1c2ccccc2nc2sc(Nc3ccc(F)cc3F)nn12 | -1.75 | ·
Cc1cc(Nc2cccc(Cl)c2C)n2nc(-c3ccco3)nc2n1 | · | -1.12
CCOC(=O)c1c(NC(=O)c2nn(-c3ccc(OCC)cc3)ccc2=O)sc(C)c1C | 0.79 | 0.26
Cc1cc(C)c(S(=O)(=O)N2CCc3ccccc3C2)c(C)c1 | -0.98 | 0.54
COc1ccc(C2CC(c3ccc(Cl)cc3)Nc3nnnn32)cc1OC (stereo unspecified) | · | 2.38
CN(CCOC(=O)c1ccc([N+](=O)[O-])cc1)c1ncc(C(F)(F)F)cc1Cl | -2.36 | ·
CN1CCN(C(=O)c2ccc(Cn3cc(Cl)cn3)o2)CC1 | 1.31 | 1.22
Cc1nc(C(F)(F)F)ccc1C(=O)NNC(=O)c1cc(C)n(C(C)(C)C)n1 | -0.9 | ·
Cc1nc(-n2cccc2)sc1C(=O)NCC1CCCCC1 | · | -2.19
Cc1c(CNS(=O)(=O)c2cc(C(F)(F)F)cc(C(F)(F)F)c2)sc2ccccc12 | -3.08 | ·
O=C(Nc1nnc(N2CCCCC2)s1)Nc1cc(F)ccc1F | -3.89 | 1.46
CN(C)c1ccc(CNc2n[nH]c(-c3ccco3)n2)cc1 | 14.9* | 3.08
O=C1C(SCc2ccccc2)=C(SCc2ccccc2)C(=O)c2ccccc21 | -2.61 | ·
CCN(CC)CCn1c2ccccc2n2cc(-c3ccc(OC)c(OC)c3)nc12 | -0.26 | 6.01
Cn1c(C2=C(O)CN(c3ccccc3F)C2=N)nc2ccccc21 | -1.38 | 0.92
N#Cc1c(NC(=O)c2cc(-c3ccc4c(c3)OCCO4)on2)sc2c1CCCC2 | -1.56 | 2.48
Cc1nc([N+](=O)[O-])c(N2CCN(Cc3ccccc3)CC2)n1Cc1ccccc1 | -0.98 | ·
COC(=O)c1c(NC(=O)c2nn(-c3cccc(Cl)c3)ccc2=O)sc2c1CCCC2 | -0.67 | 0.69
CC(Sc1nc(-c2ccccc2)c(C#N)c(=O)[nH]1)C(=O)O (stereo unspecified) | -1.35 | -2.58
CCCOc1ccc(C2C(C(=O)OCC)=C(C)NC3=C2C(=O)C(C(=O)OC)C(C)C3)cc1 (stereo unspecified) | -1.12 | 1.48
Cn1c(=O)c2c(nc(SC(c3ccccc3)c3ccccc3)n2C)n(C)c1=O | -2 | ·

Rows are unselected; 0.89% or so of the library scored in one or more.
